Source: PubChem BioAssay
AF4-AF9 inh: MLL-AF4/AF9 protein interaction inhibition | AlphaScreen, biotin-AF4 peptide binding to FLAG-AF9 | inhibition, % at 10 µM | hit rate 0.47% among 350,000;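 active = every replicate reaching a set inhibition limit, whatever the replicate mean, cut at about 25% in these data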;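 also: 0% = plate neutral control median and 100% = total signal loss; the record names both 10 and 1 µM as test concentration; the first replicate is given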
Target sequence (P42568 whole entry, looked up): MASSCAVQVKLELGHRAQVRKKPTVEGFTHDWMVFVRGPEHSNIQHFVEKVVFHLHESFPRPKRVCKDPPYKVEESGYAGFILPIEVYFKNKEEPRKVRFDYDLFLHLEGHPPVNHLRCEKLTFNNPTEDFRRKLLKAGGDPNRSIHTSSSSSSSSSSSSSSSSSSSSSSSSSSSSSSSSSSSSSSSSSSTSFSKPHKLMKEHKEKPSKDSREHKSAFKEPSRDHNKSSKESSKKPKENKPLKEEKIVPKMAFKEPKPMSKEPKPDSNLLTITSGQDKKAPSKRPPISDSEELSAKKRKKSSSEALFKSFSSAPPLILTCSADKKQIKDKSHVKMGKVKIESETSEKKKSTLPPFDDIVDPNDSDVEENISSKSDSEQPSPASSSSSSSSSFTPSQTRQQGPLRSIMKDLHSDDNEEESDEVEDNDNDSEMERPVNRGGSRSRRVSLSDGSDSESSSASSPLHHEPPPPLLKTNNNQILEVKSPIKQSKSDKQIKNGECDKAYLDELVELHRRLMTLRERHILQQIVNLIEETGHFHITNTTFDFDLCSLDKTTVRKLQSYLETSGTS
Ecoli rRNA inh: selective bacterial rRNA inhibition in E. coli; GFP signal change (wild-type ribosome), % (test concentration not listed); AID 720706; hit rate 1.6% among 350,000; E. coli WT GFP vs humanized-ribosome RFP mutants, fluorescence, 24 h; active compounds read low; DMSO median 0, no signal -100;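 active = significant combined selectivity score with lowered wild-type GFP, culture density cut under 30%, mutant RFP and density less affected; inactive = any of these conditions unmet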; also: one replicate is shown; some compounds called inactive have numbers as strong as hits
Ecoli rRNA inh OD600: also measured in Ecoli rRNA inh; calls as there; OD600 change, %; measured here: OD600 growth;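 optical density of the mix in the first replicate; 0 = DMSO median and -100 = no signal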
Ecoli rRNA inh RFP: recorded beside Ecoli rRNA inh, whose call it bears; RFP signal change, %; measured here: RFP humanized mutant strains;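 first replicate; 0 = DMSO median and -100 = no signal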
Numbers without * were called inactive; & = joins results of further samples.

The first six compounds, ahead of the listing:
Results follow in this order: AF4-AF9 inh	Ecoli rRNA inh	Ecoli rRNA inh OD600	Ecoli rRNA inh RFP
- CCc1cnc(N2[C@H](CO)[C@@H](c3ccc(C#Cc4ccccc4F)cc3)[C@@H]2C#N)s1
  -3.3	6	1	6.7
- CCC(=O)N(C)C[C@H]1Oc2ncc(C#CC(C)(C)O)cc2C(=O)N([C@H](C)CO)C[C@H]1C
  -5.3	4	5	-2.9
- Cc1ccc(S(=O)(=O)Nc2ccc3c(c2)C(=O)N([C@H](C)CO)C[C@@H](C)[C@H](CN(C)Cc2ccncc2)OCCCC[C@@H](C)O3)cc1
  0.4	-2	-2	0.8
- Cc1ccccc1S(=O)(=O)N1[C@@H]2CNC[C@H]1C2c1ccc(-c2ccncc2)cc1 (some centres not stated)
  -3.1&-7.1	-1&-3	-6&-3	2.8&0.4
- Cc1nc2ccc(C(=O)Nc3cccc(OCC(=O)N(C)C)c3)cn2c1N(C)CC1CCCCC1
  7.1	-61	-77	-17
- N#C[C@H]1[C@H](c2ccccc2C2=CCCC2)[C@H](CO)N1C(=O)NC1CCCC1
  1.2	-4	-30	-5.6

The whole of this part, from the start:
Results follow in this order: AF4-AF9 inh	Ecoli rRNA inh	Ecoli rRNA inh OD600	Ecoli rRNA inh RFP
- CCc1cnc(N2[C@H](CO)[C@@H](c3ccc(C#Cc4ccccc4F)cc3)[C@@H]2C#N)s1
  -3.3	6	1	6.7
- CCC(=O)N(C)C[C@H]1Oc2ncc(C#CC(C)(C)O)cc2C(=O)N([C@H](C)CO)C[C@H]1C
  -5.3	4	5	-2.9
- Cc1ccc(S(=O)(=O)Nc2ccc3c(c2)C(=O)N([C@H](C)CO)C[C@@H](C)[C@H](CN(C)Cc2ccncc2)OCCCC[C@@H](C)O3)cc1
  0.4	-2	-2	0.8
- Cc1ccccc1S(=O)(=O)N1[C@@H]2CNC[C@H]1C2c1ccc(-c2ccncc2)cc1 (some centres not stated)
  -3.1&-7.1	-1&-3	-6&-3	2.8&0.4
- Cc1nc2ccc(C(=O)Nc3cccc(OCC(=O)N(C)C)c3)cn2c1N(C)CC1CCCCC1
  7.1	-61	-77	-17
- N#C[C@H]1[C@H](c2ccccc2C2=CCCC2)[C@H](CO)N1C(=O)NC1CCCC1
  1.2	-4	-30	-5.6
- CCCNC(=O)N(C)C[C@@H]1Oc2ncc(-c3ccccc3F)cc2C(=O)N([C@@H](C)CO)C[C@@H]1C
  -1.7	4	9	-2.3
- CC=Cc1ccc2n(c1=O)C[C@@H]1[C@@H](CO)[C@H](C(=O)NCc3ccccn3)N(CCC)[C@H]21 (mixture of isomers)
  -9.5	2	9	3.5
- CO[C@H]1CN(C)C(=O)c2ccc(NC(=O)c3ccc(F)cc3)cc2OC[C@H](C)N(C(=O)c2ccc(F)cc2)C[C@H]1C
  1.9	-8	-11	0.9
- C[C@H](CO)N1C[C@H](C)[C@@H](CN(C)C(=O)NC2CCCCC2)Oc2ncc(/C=C/c3ccccc3)cc2C1=O
  10	2	-14	11
- COc1ccccc1-c1ccc([C@@H]2[C@@H](C#N)N(C(=O)c3cccc(F)c3)[C@@H]2CO)cc1
  -0.9	-14	-46	11
- CN(C)CC(=O)N1[C@H](C#N)[C@H](c2ccccc2-c2cccc(C(=O)N(C)C)c2)[C@H]1CO
  -3.1	3	3	-3.7
- Cc1ccccc1-c1ccc([C@H]2[C@H](CO)N3CCCCN(S(=O)(=O)c4cn(C)cn4)C[C@@H]23)cc1
  0.2	1	-14	-0.9
- O=C(C[C@@H]1C=C[C@H](NC(=O)Nc2ccc(C(F)(F)F)cc2)[C@H](CO)O1)NCCN1CCCC1
  6.6	1	0	0.6
- Cc1noc(C)c1NC(=O)N(C)C[C@@H]1Oc2cc(C#CCC3CCCC3)ccc2S(=O)(=O)N([C@@H](C)CO)C[C@@H]1C
  29*	-6	-26	19
- Cc1noc(C)c1NC(=O)Nc1cccc2c1O[C@@H](CN(C)Cc1ccc(C(=O)O)cc1)[C@@H](C)CN([C@H](C)CO)C2=O
  -1.3	3	-1	-0.8
- CN1C(=O)c2cc(NS(=O)(=O)c3ccccc3F)ccc2OC[C@@H]2O[C@H](CC(=O)NC3Cc4ccccc4C3)CC[C@H]21
  3.1	-10	-26	1.2
- O=C(COC(=O)c1cc(=O)[nH]c2ccccc12)Nc1ccc(Cl)c(S(=O)(=O)N2CCOCC2)c1
  0.6	-5	-17	9.9
- COc1ccc(C2CCCCCN2C(=O)C2CCN(S(=O)(=O)c3ccc(C)cc3)CC2)cc1 (configuration not stated)
  -1.8	-5	-13	0.8
- CC(C)(C)S(=O)N1Cc2cc(C(=O)Nc3ccc(-c4ccccc4)cc3)nc(-c3cccc(-c4cc5ccccc5o4)c3)c2[C@@H]1CCO (some centres not stated)
  1.1	26	34	37

Carrying on:
Results follow in this order: AF4-AF9 inh	Ecoli rRNA inh	Ecoli rRNA inh OD600	Ecoli rRNA inh RFP
- C[C@@H]1CN([C@H](C)CO)C(=O)c2cc(NS(=O)(=O)c3ccc(F)cc3)ccc2O[C@@H]1CN(C)C(=O)NC1CCCCC1
  -4.6	-1	-2	-2.2
- CO[C@@H]1CN(C)C(=O)c2cc(NC(=O)C3CCCC3)ccc2OC[C@H](C)NC[C@@H]1C
  -0.8	3	4	-1.1
- CCC(=O)Nc1ccc2c(c1)OC[C@H](C)N(C(=O)CN1CCOCC1)C[C@H](C)[C@H](OC)CN(C)C2=O
  -1.3	1	3	-0.5
- C[C@@H]1CN([C@@H](C)CO)S(=O)(=O)c2ccc(C#C[C@@H](C)O)cc2O[C@H]1CN(C)C(=O)Nc1ccccc1
  -0.5	-1	-3	-2.2
- COc1ccccc1NC(=O)N[C@H]1CC[C@H](CCn2cc(C3(O)CCCC3)nn2)O[C@H]1CO
  4.4	-1	-3	-0.2
- C[C@@H]1CN([C@@H](C)CO)C(=O)Cc2cc(NC(=O)Nc3cccc4ccccc34)ccc2O[C@@H]1CN(C)Cc1ccc2c(c1)OCO2
  1.8	-1	3	7.2
- CCC(=O)N[C@H]1C=C[C@@H](CC(=O)NCCN2CCCCC2)O[C@@H]1CO
  -0.9	1	-1	4.0
- CN1CCN(C(=O)C[C@@H]2CC[C@@H]3[C@H](COC[C@@H](O)CN3Cc3ccc(Oc4ccccc4)cc3)O2)CC1
  1.4	0	-12	3.1
- COc1ccc(-c2ccc3c(c2)[C@H]2[C@H](CCN2S(=O)(=O)c2ccccc2F)[C@H](CO)N3C)cc1
  -0.3	2	4	1.7
- CCc1ccc2c(F)cccc2n1
  -1.7	7	7	-2.9
- C[C@H](CO)N1C[C@H](C)[C@H](CN(C)C(=O)NC2CCCCC2)Oc2ccc(N(C)C)cc2C1=O
  0.8	-1	5	-0.8
- C[C@@H]1CN([C@@H](C)CO)C(=O)c2cc(C3=CCCCC3)cnc2O[C@@H]1CN(C)Cc1ccccn1
  -5.8	-1	4	-3.3
- C/C=C/c1ccc2c(c1)O[C@@H](CN(C)C(=O)CN1CCOCC1)[C@@H](C)CN([C@@H](C)CO)S2(=O)=O
  -0.1	4	-4	-4.1
- COc1ccc(S(=O)(=O)Nc2ccc3c(c2)C(=O)N([C@@H](C)CO)C[C@H](C)[C@@H](CN(C)C(=O)CCCN(C)C)OCCCC[C@H](C)O3)cc1
  2.8	2	3	-1.2
- COc1cccc(CN2CC3(C2)CN(S(C)(=O)=O)[C@H](CO)c2[nH]c4cc(OC)ccc4c23)c1
  10.0	-3	-2	0.6
- O=C(C[C@H]1CC[C@@H](NS(=O)(=O)c2ccc(F)cc2)[C@@H](CO)O1)N1CCc2ccccc2C1
  2.0	4	-2	0.9
- CCS(=O)(=O)Nc1ccc2c(c1)C(=O)N(C)C[C@H](OC)[C@H](C)CN(Cc1ccccn1)[C@@H](C)CO2
  -2.5	-2	-4	-1.4
- CN(Cc1ccccc1)C(=O)c1ccc2sc([C@H]3C[C@H](O)[C@@H](CO)O3)nc2c1
  0.1	1	10	2.4
- COc1ccc(NC(=O)N2CCCCN3[C@H](C2)[C@@H](c2ccc(C#CCC(C)C)cc2)[C@@H]3CO)cc1
  -4.1	-4	-27	22
- CCS(=O)(=O)N1CC2(C1)[C@@H](c1ccccc1)[C@H](CO)N2C(=O)C1CCCC1
  -0.8	2	10	-0.9

Following part:
Results follow in this order: AF4-AF9 inh	Ecoli rRNA inh	Ecoli rRNA inh OD600	Ecoli rRNA inh RFP
- C[C@H](CO)N1C[C@H](C)[C@H](CN(C)Cc2ccccn2)Oc2ncc(C#Cc3cccc(F)c3)cc2C1=O
  -9.1	2	4	5.5
- O=C(C[C@@H]1CC[C@H](NC(=O)Cc2ccccn2)[C@H](CO)O1)NCCCN1CCOCC1
  -2.1	2	7	0.2
- CCCNC(=O)[C@H]1[C@H](CO)[C@H]2Cn3c(ccc(-c4ccccc4)c3=O)[C@@H]1N2C(=O)CC
  -3.4	-1	4	0.1
- CN(C)C(=O)C[C@H]1CC[C@H]2[C@@H](COc3ccc(NC(=O)C4CCCCC4)cc3C(=O)N2C)O1
  -3.1	2	-3	-2.2
- C/C=C/c1ccc([C@H]2[C@H]3CN(S(=O)(=O)c4cccc(C)c4)CCCCN3[C@H]2CO)cc1
  2.7	-6	-27	14
- Cc1ccccc1S(=O)(=O)NC(=O)C1(C)CCN1C(=O)CCc1cccs1 (configuration not stated)
  -3.2	0	-3	-2.6
- CO[C@H]1CC[C@H]2CCOc3c(C#N)cccc3C(=O)N(C)C[C@@H](c3ccccc3)CC(=O)N(C)C[C@@H]1O2
  -3.2	0	10	-2.3
- CCN(C)C1CN(Cc2cn(Cc3ccc(C)cc3)nn2)S(=O)(=O)C1 (configuration not stated)
  -1.8	7	11	-0.7
- Cn1cnc(CCNC(=O)[C@H]2[C@H](CO)[C@H]3Cn4c(cccc4=O)[C@@H]2N3C(=O)Nc2ccccc2)c1
  2.6	1	1	-2.2
- C[C@@H]1CCCCO[C@@H](CN(C)C(=O)Nc2ccc(F)cc2)[C@H](C)CN([C@@H](C)CO)C(=O)c2cc(NS(C)(=O)=O)ccc2O1
  -4.1	-1	0	0.1
- CCNC(=O)[C@@H]1[C@@H](CO)[C@@H]2Cn3c(ccc(-c4ccccc4F)c3=O)[C@@H]2N1C(C)=O
  -3.5	0	1	-2.6
- Cc1noc(C)c1NC(=O)N(C)C[C@@H]1Oc2c(NC(=O)NC(C)C)cccc2C(=O)N([C@H](C)CO)C[C@@H]1C
  -4.3	4	18	-0.5
- COCC#Cc1ccc([C@H]2[C@H](CO)N3C(=O)CN(C(=O)C4CCCC4)C[C@@H]23)cc1
  -1.7	4	9	4.1
- CN1c2ccc(-c3cccc(F)c3)cc2[C@H]2[C@H](CCN2C(=O)c2cccc(F)c2)[C@H]1CO
  17	-6	-39	32
- COc1ccc(CN(C)C[C@@H]2OCCCC[C@@H](C)Oc3ccc(NC(=O)c4ccccc4)cc3C(=O)N([C@H](C)CO)C[C@@H]2C)cc1
  4.7	1	6	0.7
- C[C@@H]1CN([C@@H](C)CO)C(=O)c2cc(NC(=O)Nc3cccc4ccccc34)ccc2O[C@H]1CN(C)Cc1ccc(C(F)(F)F)cc1
  1.4	1	1	0.4
- CCOC(=O)C1=CCN(S(=O)(=O)c2ccccc2C)C1c1cccc(C)c1 (configuration not stated)
  -0.6	-16	-37	-12
- CCCCCNC(=O)c1ccc(NC(=O)CC2SC(N3CCCC3)=NC2=O)cc1 (configuration not stated)
  -0.4	17	23	3.6
- CCCNC(=O)N1C[C@H]2[C@@H](c3ccccc31)[C@H](CO)N2CC1CCCC1
  -6.4	1	-1	-3.0
- COc1ccc(NC(=O)N(C)C[C@H]2Oc3c(NC(=O)c4ccncc4)cccc3C(=O)N([C@H](C)CO)C[C@H]2C)cc1
  -2.5	0	5	-3.1

The results go on.
Results follow in this order: AF4-AF9 inh	Ecoli rRNA inh	Ecoli rRNA inh OD600	Ecoli rRNA inh RFP
- Cc1ccc(S(=O)(=O)Nc2ccc3c(c2)CC(=O)N([C@H](C)CO)C[C@@H](C)[C@@H](CN(C)S(C)(=O)=O)O3)cc1
  -0.1	1	3	-2.6
- C[C@H](CO)N1C[C@H](C)[C@H](CN(C)C(=O)Nc2ccc3c(c2)OCO3)Oc2ccc(NS(=O)(=O)c3cn(C)cn3)cc2C1=O
  -5.8	3	26	1.3
- Cc1noc(C)c1S(=O)(=O)Nc1ccc2c(c1)C(=O)N([C@@H](C)CO)C[C@H](C)[C@@H](CN(C)Cc1ccccc1)OCCCC[C@@H](C)O2
  4.4	0	-5	1.2
- CC(C)(C)n1nnnc1C(c1cc2ccccc2o1)N1CCCC1 (configuration not stated)
  -8.9	-13	-11	-0.2
- CCCc1nc2ccc(C)cn2c1Cc1ccccc1OC
  4.3	-33	-38	-4.1
- CC1=NN(c2ccccc2)C(=O)C1=Cc1ccccc1
  -1.4	12	10	-0.6
- CN(C)C(=O)c1cccc(-c2ccc([C@H]3[C@H](CO)N4CCCCN(S(C)(=O)=O)C[C@@H]34)cc2)c1
  0.4	6	21	2.1
- CC1(C(=O)Nc2ccccc2Cc2ccccc2)CCN1CCc1ccccc1 (configuration not stated)
  -5.4	-4	-24	-7.8
- C[C@@H]1CN([C@H](C)CO)C(=O)c2cc(-c3cccc(F)c3)cnc2O[C@@H]1CN(C)C(=O)C1CCCCC1
  -6.3	2	15	-2.3
- COCc1cn(CC(C)n2c(=O)c3ccccc3n2Cc2cc(C(C)C)no2)nn1 (configuration not stated)
  0.0	1	8	-1.2
- CC(=NNC(=S)Nc1cccc(C)c1)c1ccccn1
  4.2	-10	-3	0.3
- C[C@@H]1CN([C@H](C)CO)C(=O)c2cc(-c3ccccc3)cnc2O[C@@H]1CN(C)C
  -2.8	4	8	0.8

These rows are one share of the data; count on the stated rates, not on these rows.
